High-throughput results as filed in PubChem BioAssay.
StopGo FLuc = Primary qHTS Assay for Foot and Mouth Disease Virus Antivirals against NCGC Sytravon and CBC Compound Libraries: Firefly Luciferase Signal. HEK cells with a luciferase reporter of 2A StopGo recoding. Potency, µM (series often up to 57.5 µM), for the others: top-dose signal change, negative = less light. 120,000 compounds, 0.23% hits; active = well fitted falling curve with a large enough effect; inconclusive = small, poorly fitted or top-dose-only effect; inactive = no such curve, though single readings can be large or run the other way; further: nearly all actives have a fitted effect of over 60% in size; overnight with compound
StopGo RLuc = Primary qHTS Assay for Foot and Mouth Disease Virus Antivirals against NCGC Sytravon and CBC Compound Libraries: Renilla Luciferase Signal; HEK cells with a luciferase reporter of 2A StopGo recoding; Potency, µM (titrated, usually from 57.5 µM), for inactives: at the top dose signal change, negative = less light; 120,000 compounds, 0.32% hits; active means well fitted falling curve with a large enough effect; inconclusive means small, poorly fitted or top-dose-only effect; inactive means no such curve, though single readings can be large or run the other way; further: nearly all actives have a fitted effect of over 55% in size; overnight with compound
* hit, by the source's call; u = inconclusive; [ ] = remark or other dose. On the % scale 0 is the no-effect control and ±100 the full control effect; potency means the concentration at half of the fitted maximal effect. These rows are one share of the data. The share of hits here may be higher or lower than overall.

Molecule	StopGo FLuc	StopGo RLuc
CNC(=O)c1ccc(CSc2nc3ccncc3n2Cc2ccc(C)cc2)cc1	6%	12%
CCC[C@H](N[C@@H](C)C(=O)N1[C@H](C(=O)O)C[C@@H]2CCCC[C@@H]21)C(=O)OCC	-9%[11.5 µM]	-17%
O=C(Nc1ccc(Cl)cc1)Nc1ccc(Cl)c(C(F)(F)F)c1	u	7.1µM*
CCN(CC)CCOc1ccccc1C(=O)CCc1ccccc1	-8%[11.5 µM]	-11%
Cc1nnc(NS(=O)(=O)c2ccc(N)cc2)s1	-12%	-14%
O=C(O)c1cn(C2CC2)c2cc(Cl)c(F)cc2c1=O	9%[11.5 µM]	-1%
O=C1NC(=O)[C@@]2(CCOc3ccc(F)cc32)N1	-15%[11.5 µM]	-7%
O=C(O)COC(=O)Cc1ccccc1Nc1c(Cl)cccc1Cl	-17%[11.5 µM]	10%
Cc1nc2c3ccccc3nc(NNC(=O)CCC(=O)N3CCN(c4ccccc4)CC3)n2n1	-11%	12%
CC(NC(CCc1ccccc1)C(=O)O)C(=O)N1C(=O)N(C)CC1C(=O)O (stereo not given)	-17%	-12%
O=C(CCCl)NCCc1ccccc1	7%	3%
NS(=O)(=O)c1cc2c(cc1C(F)(F)F)NC(Cc1ccccc1)NS2(=O)=O (stereo not given)	-21%	-17%
C/C(=N\O)[C@@H](C)NCC(C)(C)CN[C@H](C)/C(C)=N/O	-11%	-5%
CCOC(=O)[C@H](CCc1ccccc1)N[C@@H](C)C(=O)N(CC(=O)O)C1Cc2ccccc2C1	-7%[11.5 µM]	20%
CCCOc1ccccc1-c1nc2n[nH]nc2c(=O)[nH]1	14%	41%[activator]

Molecule	StopGo FLuc	StopGo RLuc
COc1cc2nc(N3CCN(C(=O)C4COc5ccccc5O4)CC3)nc(N)c2cc1OC (stereo not given)	u	-20%
O=C1NCC2(CCN(CCc3ccccc3)CC2)O1	-10%	-6%
NC(=O)n1c(O)c(C(=O)c2cccs2)c2cc(Cl)ccc21	-16%[11.5 µM]	-10%
COc1nc(C)nc(Cl)c1NC1=NCCN1	-24%	-14%
COc1cc(Nc2c(C#N)cnc3cc(OCCCN4CCN(C)CC4)c(OC)cc23)c(Cl)cc1Cl	u	-24%
Fc1ccc(C(c2ccc(F)cc2)N2CCNCC2)cc1	-20%[11.5 µM]	-17%
O=C(O)[C@@H]1[C@H]2C[C@H]3c4[nH]c5ccccc5c4CCN3C[C@@H]2CC[C@@H]1O	-10%	-11%
O=C(O)CN1C(=O)c2cccc3cccc(c23)C1=O	-17%	-8%
CCCc1ccc(OCC(=O)N2CCN(C(=O)COc3ccc(CCC)cc3OC)CC2)c(OC)c1	-7%	1%
CCOC(=O)c1cccc(N)c1	0%	-4%
Nc1cc(-c2ccncc2)c[nH]c1=O	-22%	-14%
COC(=O)c1cc(Cl)c(NC(C)=O)cc1OC	24%[11.5 µM]	-13%
CC(Oc1c(Cl)cccc1Cl)C1=NCCN1 (stereo not given)	-12%	25%
C[C@]12CC[C@H]3[C@@H](CCC4=CC(=O)CC[C@@]43C)[C@@H]1CC[C@@H]2C(=O)CO	-2%	7%
CN(C)CCN(Cc1ccsc1)c1ccccn1	-16%	-7%

Molecule	StopGo FLuc	StopGo RLuc
CCNC(=O)/C=C/c1cccc(Br)c1	48%[activator]	8%
CC(=O)[C@H]1CC[C@H]2[C@@H]3C[C@H](C)C4=CC(=O)CC[C@]4(C)[C@H]3[C@@H](O)C[C@]12C	-3%	1%
Cc1nn(CC(=O)NCCc2ccccc2)c(=O)c2c1sc1ccccc12	18%	-4%
O=[N+]([O-])c1cccc(/C=N/Nc2nnc(Cl)c3ccccc23)c1	0%	-8%
Cc1oc(-c2cccc(Cl)c2)nc1Cn1c(SCc2ccccc2F)nc2ccncc21	18%	-10%
Cc1onc(-c2ccccc2Cl)c1C(=O)N[C@@H]1C(=O)N2[C@@H]1SC(C)(C)[C@@H]2C(=O)O	8%[11.5 µM]	28%
COc1cc(N)c(Cl)cc1C(=O)NC1CCN(CCCOc2ccc(F)cc2)CC1OC (stereo not given)	-18%[11.5 µM]	-10%
Nc1ccc(C(=O)Nc2ccccc2N)cc1	270%[activator]	264%[activator]
CCCOC(=O)c1ccccc1	-11%[11.5 µM]	-7%
O=c1cc[nH]c(=O)[nH]1	-8%	-1%
c1ccc2c(CC3=NCCN3)cccc2c1	-14%	-16%
O=C(Nc1ccc(F)cc1)c1cn(-c2ccccc2)nn1	73%[activator]	-6%
Cc1nc2c3ccccc3nc(NNC(=O)CCC(=O)N3CCN(c4cc(Cl)ccc4C)CC3)n2n1	-15%	54%[activator]
COc1ccc(NC(=O)Cn2ccn(-c3ccc(C)c(C)c3)c(=O)c2=O)cc1Cl	-16%	-11%
CC(C)Cn1cnc2c1c(=O)n(C)c(=O)n2C	-7%[11.5 µM]	-7%

A few values from the results shown.
For StopGo RLuc, Cc1oc(-c2cccc(Cl)c2)nc1Cn1c(SCc2ccccc2F)nc2ccncc21 reads -10%
For StopGo FLuc, Cc1nn(CC(=O)NCCc2ccccc2)c(=O)c2c1sc1ccccc12 reads 18%

Other entries.
Molecule	StopGo FLuc	StopGo RLuc
O=C(Cn1ccnc1[N+](=O)[O-])NCCO	-18%	-9%
CC(=O)N1C[C@H](O)C[C@H]1C(=O)O	-18%	-8%
N/C(=N\N=C\c1ccc(Cl)cc1)N/N=C/c1ccc(Cl)cc1	-5%	-13%
COC(=O)c1cccnc1	-19%	-12%
COc1ccc(CN(CCN(C)C)c2ccccn2)cc1	1%[11.5 µM]	-18%
CCN(CC)C(=O)Nc1ccc(OCC(O)CNC(C)(C)C)c(C(C)=O)c1 (stereo not given)	-12%	-4%
CC(C)(C)NCC(O)COc1ccccc1OCC1CCCO1 (stereo not given)	-17%	-12%
CN1CCC(=C2c3ccccc3CCc3sccc32)CC1	6%[11.5 µM]	-11%
O=C(O)[C@@H](O)[C@H](O)[C@H](O)[C@@H](O)C(=O)O	-16%	-12%
CC(=O)NCCCCCC(=O)O	-12%	-11%
CN(C)C/C=C(/c1ccc(Br)cc1)c1cccnc1	15%[11.5 µM]	-1%
C#C[C@]1(OC(C)=O)CC[C@H]2[C@@H]3CCC4=C/C(=N/O)CC[C@@H]4[C@H]3CC[C@@]21CC	u	-16%
CCCCC1CCC(CCCC(C)CCC(=O)O)CC1 (stereo not given)	-18%	0%
CCN1CCC(N(Cc2ccc3c(c2)OCO3)C(=O)Nc2ccc(OC)c(OC)c2)CC1	6%	-4%
CC1=NN(c2ccccc2)C(=O)C1	-11%[11.5 µM]	60%[activator]

Molecule	StopGo FLuc	StopGo RLuc
CC(C)Cc1ccc(C(C)C(=O)O)cc1 (stereo not given)	-10%[11.5 µM]	-7%
OC1(c2ccc(Cl)c(C(F)(F)F)c2)CCN(CCCC(c2ccc(F)cc2)c2ccc(F)cc2)CC1	-13%[11.5 µM]	22µM*
CCCCCCCC/C=C\CCCCCCCCN	-18%	-8%
CC1c2ccccc2CN1NC(=O)c1ccc(Cl)c(S(N)(=O)=O)c1 (stereo not given)	-12%	-4%
Cc1ccccc1N=Nc1ccc(N=Nc2c(O)ccc3ccccc23)c(C)c1	-3%[11.5 µM]	-13%
CC(=O)c1ccc(OCC(=O)N2CCCCC2)cc1	-20%	-9%
CC(=O)O[C@]1(C(C)=O)CC[C@H]2[C@@H]3C=C(Cl)C4=CC(=O)[C@@H]5C[C@@H]5[C@]4(C)[C@H]3CC[C@@]21C	34%[activator]	u
N=C(N=C(N)N)N1CCOCC1	-8%	-11%
COc1ccc(C(=O)Nc2nc3ccccc3n2CCOc2ccc(Cl)cc2)cc1	43%[activator]	-5%
CN(C)CCCN1c2ccccc2Sc2ccccc21	-15%	-16%
O=S(=O)(O)c1ccc2nc(-c3ccccc3)[nH]c2c1	-8%[11.5 µM]	-8%
Cc1cc2c(s1)Nc1ccccc1N=C2N1CCN(C)CC1	-9%	-12%
COc1ccccc1OCC(O)COC(N)=O (stereo not given)	-10%	-5%
CCCSS/C(CCO)=C(\C)N(C=O)Cc1cnc(C)nc1N	-10%	-7%
COc1cccc(CCc2ccccc2OCC(CN(C)C)OC(=O)CCC(=O)O)c1 (stereo not given)	-15%[11.5 µM]	-8%
O=C1N(c2ccccc2)c2ccccc2C1(Cc1ccncc1)Cc1ccncc1	-20%	-7%
CCC1C(=O)OCC1Cc1cncn1C (stereo not given)	-18%[11.5 µM]	-3%
NS(=O)(=O)c1cc(C(=O)NN2C[C@H]3[C@H]4CCC(C4)[C@H]3C2)ccc1Cl	-5%	-6%

Molecules shown so far with four or more nitrogen atoms, in the order listed:
Molecule	StopGo FLuc	StopGo RLuc
CNC(=O)c1ccc(CSc2nc3ccncc3n2Cc2ccc(C)cc2)cc1	6%	12%
Cc1nnc(NS(=O)(=O)c2ccc(N)cc2)s1	-12%	-14%
Cc1nc2c3ccccc3nc(NNC(=O)CCC(=O)N3CCN(c4ccccc4)CC3)n2n1	-11%	12%
C/C(=N\O)[C@@H](C)NCC(C)(C)CN[C@H](C)/C(C)=N/O	-11%	-5%
CCCOc1ccccc1-c1nc2n[nH]nc2c(=O)[nH]1	14%	41%[activator]
COc1cc2nc(N3CCN(C(=O)C4COc5ccccc5O4)CC3)nc(N)c2cc1OC (stereo not given)	u	-20%
COc1nc(C)nc(Cl)c1NC1=NCCN1	-24%	-14%
COc1cc(Nc2c(C#N)cnc3cc(OCCCN4CCN(C)CC4)c(OC)cc23)c(Cl)cc1Cl	u	-24%
O=[N+]([O-])c1cccc(/C=N/Nc2nnc(Cl)c3ccccc23)c1	0%	-8%
Cc1oc(-c2cccc(Cl)c2)nc1Cn1c(SCc2ccccc2F)nc2ccncc21	18%	-10%
O=C(Nc1ccc(F)cc1)c1cn(-c2ccccc2)nn1	73%[activator]	-6%
Cc1nc2c3ccccc3nc(NNC(=O)CCC(=O)N3CCN(c4cc(Cl)ccc4C)CC3)n2n1	-15%	54%[activator]
CC(C)Cn1cnc2c1c(=O)n(C)c(=O)n2C	-7%[11.5 µM]	-7%
O=C(Cn1ccnc1[N+](=O)[O-])NCCO	-18%	-9%
N/C(=N\N=C\c1ccc(Cl)cc1)N/N=C/c1ccc(Cl)cc1	-5%	-13%
Cc1ccccc1N=Nc1ccc(N=Nc2c(O)ccc3ccccc23)c(C)c1	-3%[11.5 µM]	-13%
N=C(N=C(N)N)N1CCOCC1	-8%	-11%
Cc1cc2c(s1)Nc1ccccc1N=C2N1CCN(C)CC1	-9%	-12%
CCCSS/C(CCO)=C(\C)N(C=O)Cc1cnc(C)nc1N	-10%	-7%
